Bioassay records as filed in PubChem BioAssay.
MT1-MMP act inh – MT1-MMP (human) activation inhibition | P50281 | HT1080 RFP-PRO-GFP cells, GFP/RFP ratio fluorescence, overnight; percent of plate control window, DMSO zero | GFP/RFP ratio change, % at 20 µM | 0.061% of 360,000 active;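 active means GFP/RFP ratio change of at least 30% with cell ATP level not reduced by more than half and red fluorescence within 50% of control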; further: strong numbers were not always called active
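Test system: HT1080 cells expressing an RFP-PRO-GFP fluorescent reporter construct / Compound dosing: single-point 20 µM compound, 1% DMSO / Schedule: cells overnight before dosing, compound overnight, 37 °C, 5% CO2 / Evaluation: GFP/RFP fluorescence ratio / Control set: DMSO and RFP-L50D-GFP cell wells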
eIF4H FP inh – inhibitors of RNA binding by human eIF4H; Q15056; eIF4H fluorescence polarization binding assay; inhibition, % at 35 µM; 0.94% of 290,000 active;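 active means 50% or more with normal probe brightness, or confirmed in later tests; inconclusive means above 50% with abnormal brightness, or retests that disagree; inactive means below 50% or failed in later tests; about a fifth of its hits are not listed in these tables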;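 further: calls also rest on retests at 20 µM and on dose response follow-up; 0% = protein and probe with vehicle and 100% = probe without protein; strong numbers were not always called active; many hits fall short of the cut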
Rce1 inh – inhibitors of yeast Ras-converting enzyme; yeast membranes, quenched prenylated peptide cleavage fluorescence; Q03530; 0.27% of 290,000 active; calls only;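 active means fall in fluorescence gain of 50% or more versus controls, with final raw signal at or below 3038400; inconclusive means same 50% fall but final raw signal above 3038400; inactive means fall in fluorescence gain under 50%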;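 further: plate controls were neutral control wells for no effect and wells lacking membranes for full effect; tested at 10 µM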
Target sequence (Q03530 whole entry, looked up): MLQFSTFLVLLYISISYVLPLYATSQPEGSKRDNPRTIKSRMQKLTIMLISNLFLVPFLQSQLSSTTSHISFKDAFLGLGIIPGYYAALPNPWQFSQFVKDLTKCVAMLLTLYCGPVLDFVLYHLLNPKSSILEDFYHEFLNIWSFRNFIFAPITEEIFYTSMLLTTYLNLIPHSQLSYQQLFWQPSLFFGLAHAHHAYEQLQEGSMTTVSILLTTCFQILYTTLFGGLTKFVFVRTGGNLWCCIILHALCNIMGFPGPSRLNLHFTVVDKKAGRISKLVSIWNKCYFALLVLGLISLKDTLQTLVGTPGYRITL
PABP polyA inh – PABP-poly(A) binding inhibition; PABP-poly(A) RNA binding, fluorescence polarization; inhibition, % at 35 µM; P11940; AID 2014; 1% of 290,000 active;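 active means 50% or more with normal probe brightness, or confirmed in later tests; inconclusive means above 50% with abnormal brightness, or retests that disagree; inactive means below 50% or failed in later tests; about a fifth of its hits are not listed in these tables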;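 further: calls also rest on retests at 20 µM and on dose response follow-up; controls were probe without protein and protein plus probe with vehicle; some compounds called inactive have numbers as strong as hits; many hits fall short of the cut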
UUG fidelity – yeast start codon fidelity modulation; 0.13% of 350,000 active; activity score, % at 18.7 µM; S. cerevisiae UUG-firefly luciferase reporter, luminescence/redox ratio;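 active means replicate mean at a twofold rise or more, about +100% in these data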;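 further: firefly luciferase made from a UUG start codon reports start codon fidelity; reporter light over untreated wells divided by growth signal over untreated wells; some hits fall short of that in this replicate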
CSC inhib – cancer stem cell inhibition | cancer stem cell-like cells viability, luminescence | inhibition, % at 7.5 µM | 1.1% of 300,000 active | AID 2717;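 active means mean at 75% or more and at least half the replicates too; inconclusive means mean and replicates disagree; tested in HMLE shEcad cells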;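 further: 0% = median of negative and 100% = median of positive control wells; the first replicate is given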
HIV Env fusion – inhibitors of HIV Env-mediated cell fusion; HeLa-JRFL Env/CEM21 cell fusion, luciferase; inhibition, % at 12.3 µM; 1.1% of 360,000 active; AID 651610;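 active means mean replicate inhibition score of at least 50 and every replicate individually at or above 50; inconclusive means only one of the two criteria met; inactive means mean below 50 and not all replicates reaching 50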;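 further: 0% = plate neutral controls and 100% = maraviroc near 300 nM; one replicate is shown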
MT1-MMP act inh RFP – second read-out of MT1-MMP act inh, no call of its own (marks repeat the call); RFP signal change, %; measured here: RFP expression control read;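 0 = vehicle wells; hits needed this value within 50% of zero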
* marks the source's active call; other numbers are inactive results; i = inactive; ? = inconclusive; / = not tested or not shown; + = active, no number. These rows are one share of the data; rates above refer to the full screens.

SMILES	MT1-MMP act inh	MT1-MMP act inh RFP	eIF4H FP inh	Rce1 inh	PABP polyA inh	UUG fidelity	CSC inhib	HIV Env fusion
Cc1c(O)ccc2c(CN(C)Cc3ccccc3)cc(=O)oc12	-17	-14	0	i	6	-2	15	28
CCOC(=O)c1cnn(-c2ccccc2)c1NC(=O)CN1CCOCC1	-7	1	0	i	2	/	-10	-1
Cc1nn(-c2ccc(F)cc2F)c(=O)c2noc(C)c12	-1	5	8	i	-7	/	4	2
Cc1cccnc1NC(=O)CN1C(=O)c2ccccc2S1(=O)=O	6	5	/	i	/	-19	-5	-4
COC(=O)C1=C(C)NC(=O)/C1=C\c1cc(C)n(-c2cc(C)cc(C)c2)c1C	-15	5	83*	i	97*	/	-8	/
CCN(CC)C(=O)c1ccccc1NC(=O)c1cccc(S(=O)(=O)N(CC)CC)c1	-3	0	-9	i	2	/	-10	-10
C=CCNC(=O)C12CCC(C)(C(=O)[C@H]1Br)C2(C)C (stereo partly drawn)	-2	1	-9	i	5	/	-2	-12
COc1ccc(/C=C/C(=O)N(C)C2CCCCC2)cc1Br	1	-8	-12	i	1	/	2	-28
CC1(C)NC(=O)N(CCOc2ccc([N+](=O)[O-])cc2)C1=O	-3	3	-4	i	-8	2	-12	24
Cc1cc2ccccn2c1C(=O)c1ccccc1F	1	0	1	i	-5	-6	33	-5

Random excerpt: four records from the list, in no set order.
SMILES	MT1-MMP act inh	MT1-MMP act inh RFP	eIF4H FP inh	Rce1 inh	PABP polyA inh	UUG fidelity	CSC inhib	HIV Env fusion
Cc1cccnc1NC(=O)CN1C(=O)c2ccccc2S1(=O)=O	6	5	/	i	/	-19	-5	-4
COC(=O)C1=C(C)NC(=O)/C1=C\c1cc(C)n(-c2cc(C)cc(C)c2)c1C	-15	5	83*	i	97*	/	-8	/
COc1ccc(/C=C/C(=O)N(C)C2CCCCC2)cc1Br	1	-8	-12	i	1	/	2	-28
Cc1cc2ccccn2c1C(=O)c1ccccc1F	1	0	1	i	-5	-6	33	-5

The listing continues:
SMILES	MT1-MMP act inh	MT1-MMP act inh RFP	eIF4H FP inh	Rce1 inh	PABP polyA inh	UUG fidelity	CSC inhib	HIV Env fusion
CC(=O)c1cccc(NC(=O)N2CCCC2C(=O)NCCC(C)C)c1 (stereo not drawn)	7	5	-1	i	2	-11	9	-50
Cc1cc(Br)ccc1NC(=O)CN(C)C(=O)CCSc1ccc(F)cc1	5	-4	/	i	/	-2	10	6
CCOc1ccc(-n2cc(C(=O)c3cc(Cl)ccc3O)cc(C#N)c2=O)cc1	-7	-5	-11	i	-7	/	14	-5
C/C(=C\c1ccccc1)C(=O)Nc1nccs1	1	0	4	i	2	/	/	-28
CSCCC(NS(=O)(=O)c1ccc2c(c1)Cc1cc(S(=O)(=O)NC(CCSC)C(=O)O)ccc1-2)C(=O)O (stereo not drawn)	1	3	3	i	21	11	2	11
O=C(Cc1ccccc1[N+](=O)[O-])NCCc1ccc(F)cc1	5	4	-5	i	2	-20	-10	15
CC[C@H](C)[C@@H]1NC(=O)c2cc([N+](=O)[O-])cc(F)c2NCCCC[C@@H](C(N)=O)NC(=O)[C@H](CCCCN)NC1=O	-2	1	1	i	-1	-12	-13	4
O=c1[nH]cc(N=Cc2cc(Cl)cc(Cl)c2O)c(=O)[nH]1	1	2	7	i	10	-24	-6	-23
COc1ccc(NC(=O)CC2C(=O)N(C)C(=S)N2Cc2ccco2)cc1 (stereo not drawn)	-1	-3	-2	i	37	-12	10	13
CN(C)S(=O)(=O)c1ccc(NC(=O)c2cc(-c3cccs3)nc3ccccc23)cc1	-13	-13	0	i	-18	-8	-1	-4
O=C(CCS(=O)(=O)c1ccccc1)Nc1ccc2c(c1)C(=O)NC2=O	-2	-1	-7	i	?	/	-13	1
O=C(Nc1nnc(C2=COCCO2)o1)c1cccc(Br)c1	-1	3	-2	i	0	-33	-5	-7
Nc1nonc1-n1nnc(C(=O)N/N=C/c2ccccc2Cl)c1CSc1ccccc1	3	-2	11	/	-1	-12	/	-5
O=C(c1ccc(Cl)nc1)N1CCN(C/C=C/c2ccccc2)CC1	3	-3	-7	i	-10	/	1	0
CC(C)c1ccc(CN(C(=O)C2COc3ccccc3O2)C2CCS(=O)(=O)C2)cc1 (stereo not drawn)	-6	-3	2	i	-2	-10	-7	25
COc1ccc(C(=O)N[C@H](C(=O)Nc2sccc2C(N)=O)C(C)C)cc1	4	0	4	i	13	-18	3	-8
CCCCOc1ccc(S(=O)(=O)Nc2cccnc2)cc1	8	-18	-2	i	-4	-20	-2	69*
COCCN(C(=O)c1ccc(COc2ccccc2)o1)c1c(N)n(CC(C)C)c(=O)[nH]c1=O	-2	4	/	/	/	-9	/	-3
CCCCOc1ccccc1C(=O)N(Cc1ccco1)C1CCS(=O)(=O)C1 (stereo not drawn)	-1	-1	1	i	6	3	-7	8
CC(=O)Nc1ccc2c3c(cccc13)C(=O)N(c1ccccc1)C2=O	-5	-3	-4	i	10	/	-9	6
Cc1ccccc1C(=NC(=O)c1ccccc1)c1ccccc1	0	3	2	i	1	-13	-9	/
Cc1ccc(OCc2nnc(SCC(=O)C(C)(C)C)n2Cc2ccco2)cc1	-3	-11	5	i	-10	-15	42	/
Nc1ccc(NC(=O)c2ccccc2)c2c1C(=O)c1ccccc1C2=O	38*	28*	14	/	7	-10	11	-26
C[C@@H](C(=O)N[C@H](C(=O)O)c1ccccc1)n1nnc2ccccc2c1=O	1	5	-6	i	-12	/	-9	-8
Cc1ccc(NS(=O)(=O)c2ccc(OCC(=O)N3CCOCC3)cc2)cc1	1	-1	-5	i	-7	-18	-4	21
Cc1ccccc1Cn1c(C)nc2ccc([N+](=O)[O-])cc2c1=O	5	-1	5	i	5	-7	3	13
CCOc1cccc(=O)c2c(C)n(CC3CCCO3)c(C)c12 (stereo not drawn)	-19	-5	80*	i	93*	-16	/	-28
CCn1c(CNC(=O)C23CC4CC(CC(C4)C2)C3)nnc1SC	4	-1	-5	i	23	/	-5	-19
CC(=O)c1ccc(S(=O)(=O)Nc2ccc(-n3c(C)nc4ccccc4c3=O)cc2)cc1	2	0	/	i	/	-12	8	5
COc1ccc(C(=O)NCCc2nnc(SCC(=O)Nc3ccccc3F)n2C)cc1	0	2	-1	i	17	/	-15	-17
CCN1CCN(CC(O)COc2ccc3c(C)cc(=O)oc3c2)CC1 (stereo not drawn)	6	5	-5	+	-9	/	-12	7
Cc1ccc(C)n1-c1ccc(N2CCOCC2)cc1	9	3	7	i	7	-48	-9	-21
CCOc1ccccc1C(=O)N1CCN(c2ccc(C(F)(F)F)cn2)CC1	5	-14	4	i	-5	-8	20	16
CCc1nc2c(OCc3cc(Cl)cc(Cl)c3)cccn2c1N(C=O)Cc1ccccc1	4	-3	/	/	/	-8	/	15
CCOc1ccc(S(=O)(=O)N(CCO)CCO)cc1-c1nc2c(C(C)(C)C)nn(C)c2c(=O)[nH]1	4	5	-4	i	1	/	-17	/
CCOc1nc(-c2ccc(Cl)cc2Cl)ccc1C#N	-4	-4	6	i	0	-14	20	47
CC(C(=O)N1CCCCC1)n1ncn2cccc2c1=O (stereo not drawn)	0	10	-9	i	-6	5	-1	/
O=NN1CCN(c2ccncc2S(=O)(=O)N2CCCCC2)CC1	-7	1	-12	/	-10	-20	-6	-10
O=C(CCCc1ccccc1)Nc1cccc(C(=O)O)c1	2	6	8	i	-8	/	0	47
O=C1C(=Cc2cccc(O)c2O)SC(=S)N1CCCN1CCOCC1	2	3	/	/	/	-14	/	9
COc1ccc(S(=O)(=O)N2CCCCCC2)cc1NC(=O)c1c2c(nc3ccccc13)CCN(Cc1ccccc1)C2	-4	-8	-9	i	-4	0	-2	65*
CN(C(=O)CSc1cccc[n+]1[O-])c1ccccc1	3	4	/	/	/	-18	18	11
O=C(CCC1CCCCC1)Nc1nccs1	-3	0	-11	i	0	-12	/	9
COc1ccc(-c2nc(CS(=O)CC(=O)NCCC3=CCCCC3)c(C)o2)cc1 (stereo not drawn)	1	1	-4	i	2	-14	1	-28
COC(=O)c1nn(-c2ccc(Cl)cc2)c(=O)cc1Sc1ccccn1	2	1	-8	i	-6	-6	10	10
CC(=O)n1cc([C@H]2C=C(C(=O)Nc3ccccc3)O[C@@H](OCc3ccc(CO)cc3)C2)c2ccccc21	-3	-4	-9	i	-1	-11	28	/
O=C(O)c1c[nH]c2ccc([N+](=O)[O-])cc2c1=O	1	-1	/	/	/	-7	/	-9
N/C(=N\OC(=O)c1ccc2ccccc2c1)c1ccccc1Cl	-15	-14	-1	i	-2	-12	-7	-202
Cc1cccc(NC(=O)c2cccc(N3C(=O)C4CCC(C)CC4C3=O)c2)c1C (stereo not drawn)	4	-1	3	i	-2	-6	-14	10
CSc1nnc2c(n1)OC(c1cccn1C)N(C(C)=O)c1ccccc1-2 (stereo not drawn)	2	5	1	i	-4	1	-9	-37
Next structures
SMILES	MT1-MMP act inh	MT1-MMP act inh RFP	eIF4H FP inh	Rce1 inh	PABP polyA inh	UUG fidelity	CSC inhib	HIV Env fusion
COc1cccc(C(=O)NCCS(=O)(=O)NCCCc2ccccc2)c1	-1	1	/	i	/	3	-3	2
COc1ccc(C(=O)NCCSCc2cccc(Cl)c2)cc1OC	0	-4	-2	i	5	-2	-18	4
Cc1cc(NC(=O)COC(=O)/C=C/c2ccc(C)o2)no1	2	2	/	/	/	-2	-12	/
COc1ccc(-c2nnc(SCC(=O)O)n2Cc2ccccc2)cc1	-1	1	-9	i	-1	-29	-27	8
Cc1ccc(OS(=O)Nc2cccc3nccnc23)cc1 (stereo not drawn)	5	5	5	i	3	-12	1	/
Cc1csc2nc(CNC(=O)C3CCCCC3)cn12	2	3	1	i	-4	-15	0	8
Cc1ccc(NC(=S)NC(=O)c2c(-c3ccccc3Cl)noc2C)cc1	-6	-2	-4	i	2	-18	-1	-34
COc1ccc(-c2ccc(NS(=O)(=O)c3cc([N+](=O)[O-])ccc3C)cc2)nn1	1	1	-4	i	9	-4	-18	-4
Cc1cc(F)c(F)c(C(=O)NC2CC2)c1Cl	1	3	-6	i	-13	-9	-8	/
COc1ccc(NC(=O)CN(C)C(=O)c2oc3ccccc3c2C)cc1	-9	4	-4	/	-14	/	-8	2
Cc1cccc(N2CCN(C(=O)c3ccc(NS(=O)(=O)c4ccc5[nH]c(=O)[nH]c5c4)cc3)CC2)c1C	-2	-2	2	i	-1	10	5	5
C/C(Cl)=C\Cn1c(Nc2ccc(C)cc2)nc2c1c(=O)n(C)c(=O)n2C	-5	-4	-11	i	-3	-19	/	27
COc1ccc(CN(C)S(=O)(=O)c2nnc(NC(=O)c3ccccc3)s2)cc1OC	2	0	7	i	-1	-13	21	8
Cc1ccn2cc(C(=O)NCc3ccco3)nc2c1	5	9	7	i	-5	/	-4	?
CC(C)(C)NC(=O)N1c2ccccc2Sc2ccccc21	8	-5	1	i	2	-12	4	-5
Cc1nc2ccccc2nc(C)c1=NOCC(=O)N(c1ccccc1)C(C)C	1	2	-4	i	8	/	16	9
O=C1NCCCC1C(=O)N/N=C/c1cccc(O)c1 (stereo not drawn)	-1	3	-8	i	-6	/	-14	8
Cn1c(=O)c2c(ncn2Cc2ccc(Cl)cc2)n(C)c1=O	0	-9	2	i	0	/	8	13
Cn1nc(-c2ccc(Cl)cc2)c2cc(C(=O)NCc3ccco3)sc21	-7	-6	-6	i	5	-1	32	-30
COC(=O)C1=CO[C@@H](O)C2C(CO)=CCC12 (stereo partly drawn)	56	51	/	/	/	-18	12	9
CCNc1ccc(C(=O)OCC(=O)NCc2ccccc2Cl)cc1[N+](=O)[O-]	2	4	-11	i	-5	/	-11	9
